# Screening data from PubChem.
# Rce1 inh: yeast Rce1p protease inhibitors, primary screen, biochemical, fluorescence, cell-free homogeneous. calls only. yeast membranes, quenched prenylated peptide cleavage fluorescence. CAAX prenyl protease 2 (Saccharomyces cerevisiae (strain ATCC 204508 / S288c)), Q03530. 290,000 compounds, 0.27% hits;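 active = fall in fluorescence gain of 50% or more versus controls, with final raw signal at or below 3038400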;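 note: plate controls were neutral control wells for no effect and wells lacking membranes for full effect; tested at 10 µM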
# eIF4H inh: human eIF4H binding inhibitors, primary screen, translation initiation inhibitor project, biochemical, uHTS, fluorescence polarization; Eukaryotic translation initiation factor 4H (Homo sapiens), Q15056; eIF4H fluorescence polarization binding assay; inhibition, % at 35 µM; 290,000 compounds, 0.94% hits;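 active = 50% or more with normal probe brightness, or confirmed in later tests; about a fifth of its hits are not listed in these tables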;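 note: calls also rest on retests at 20 µM and on dose response follow-up; 0% = protein and probe with vehicle and 100% = probe without protein; strong numbers were not always called active; many hits fall short of the cut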
# CSC inhib: cancer stem cell viability inhibitors, primary screen, luminescence; inhibition, % at 7.5 µM; cancer stem cell-like cells viability; 300,000 compounds, 1.1% hits;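 active = mean at 75% or more and at least half the replicates too; tested in HMLE shEcad cells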;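 note: 0% = median of negative and 100% = median of positive control wells; the first replicate is given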
# PABP FP inh: PABP poly(A) RNA binding inhibitors, primary screen, biochemical, fluorescence polarization, uHTS; Polyadenylate-binding protein 1 (Homo sapiens), P11940; inhibition, % at 35 µM; 290,000 compounds, 1% hits;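 active = 50% or more with normal probe brightness, or confirmed in later tests; about a fifth of its hits are not listed in these tables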;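 note: calls also rest on retests at 20 µM and on dose response follow-up; controls were probe without protein and protein plus probe with vehicle; some compounds called inactive have numbers as strong as hits; many hits fall short of the cut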
# Target sequence (P11940 whole entry, looked up): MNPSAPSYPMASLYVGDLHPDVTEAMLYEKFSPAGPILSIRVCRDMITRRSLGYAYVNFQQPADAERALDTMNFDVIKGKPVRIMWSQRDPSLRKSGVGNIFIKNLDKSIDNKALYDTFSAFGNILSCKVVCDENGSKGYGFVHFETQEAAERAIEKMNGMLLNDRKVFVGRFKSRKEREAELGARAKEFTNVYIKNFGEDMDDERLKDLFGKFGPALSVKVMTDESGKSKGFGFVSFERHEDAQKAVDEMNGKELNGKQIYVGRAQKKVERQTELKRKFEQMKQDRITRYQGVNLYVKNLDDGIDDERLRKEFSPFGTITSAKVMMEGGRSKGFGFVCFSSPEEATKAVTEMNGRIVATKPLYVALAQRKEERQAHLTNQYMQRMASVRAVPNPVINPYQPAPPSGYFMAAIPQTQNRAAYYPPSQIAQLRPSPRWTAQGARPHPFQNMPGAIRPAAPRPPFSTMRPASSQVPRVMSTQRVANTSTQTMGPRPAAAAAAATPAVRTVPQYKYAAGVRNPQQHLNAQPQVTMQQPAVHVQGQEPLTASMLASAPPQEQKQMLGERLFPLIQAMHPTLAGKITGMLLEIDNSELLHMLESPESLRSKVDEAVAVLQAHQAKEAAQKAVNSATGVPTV
# * = called active by the depositor; i = inactive; . = not tested or not shown. An excerpt (hit frequency here may not be typical).
SMILES,Rce1 inh,eIF4H inh,CSC inhib,PABP FP inh
O=C(O)C[C@H](O)C[C@H](O)/C=C/c1c(C2CC2)nc2ccccc2c1-c1ccc(F)cc1,i,.,.,.
CS(=O)(=O)c1ccccc1-c1csc(N2CCC(C(N)=O)CC2)n1,.,.,-18.4,.
COc1ccc(NC(=O)c2nc[nH]c2C(=O)NCCCCCNC(=O)OC(C)(C)C)cc1,.,.,-7.4,.
COc1ccc2c(c1)[C@H]1[C@H](CO2)[C@H](c2ccccc2)[C@]2(C)C(=O)N[C@@H](C)C(=O)N12,.,.,10.0,.
C[C@H](NC(=O)c1nc[nH]c1C(=O)NC1CCNCC1)C(=O)OCc1ccccc1,.,.,-13.5,.
Cc1cc(-c2ccc(N=Nc3c(S(=O)(=O)O)cc4cc(S(=O)(=O)O)cc(N)c4c3O)c(C)c2)ccc1N=Nc1c(S(=O)(=O)O)cc2cc(S(=O)(=O)O)cc(N)c2c1O,.,.,65.0,.
CCOC(=O)c1ccccc1NC(=O)CC1Nc2ccccc2NC1=O (stereo not drawn),.,0.2,.,-3.7
COc1ccccc1C1/C(=C(\O)c2ccc3c(c2)OCCO3)C(=O)C(=O)N1CCCN(C)C (stereo not drawn),.,-5.3,.,-9.0
C/C(CCC(=O)OC[C@H]1O[C@H](C#Cc2ccccc2)C=C[C@@H]1Oc1ccc(C)cc1)=N\O[C@@H](C)CN1CCCCc2nc(C)c(C)cc21,.,40.4,.,-4.0
CCc1ccc(Nc2nnc(SCC(=O)c3ccc4c(c3)NC(=O)CO4)s2)cc1,.,-9.4,.,-4.0
Cn1c(=O)c2c(nc(CN3CCN(c4ccccc4)CC3)n2Cc2ccccc2F)n(C)c1=O,.,0.2,.,-8.1
COc1ccccc1N/C(=N/c1nc(C)cc(C)n1)NC(C)=O,.,2.6,.,-6.6
COc1ccc(F)cc1CN1CCN(c2cc(C)nc3c4c(C)cc(C)nc4nn23)CC1,.,2.8,.,8.1
CCOC(=O)c1c(-c2cccs2)csc1NC(=O)CNCCN1CCOCC1,.,4.4,.,11.8
c1nc(N2CCNCC2)c2sc3nc(N4CCOCC4)c4c(c3c2n1)CCC4,.,-11.2,.,0.4
COC(=O)c1ccc(S(=O)(=O)N(Cc2cc3cc4c(cc3[nH]c2=O)OCO4)C2CCCCC2)cc1,.,-4.6,.,-6.7
O=c1c2c3nc4ccccc4nc3n(/N=C/c3cccs3)c2ncn1-c1ccccc1,.,6.3,.,-1.9
O=S(=O)(c1ccccc1)N1CCC(N2CCN(c3ccccc3)CC2)CC1,.,-1.6,.,-0.9
Cc1nn(-c2ccccc2)c(Cl)c1/C=N/NC(=O)C1COc2ccccc2O1 (stereo not drawn),.,10.2,.,-3.7
COc1ccc(C2CC(=O)C(C=NCCN3CCN(C(C)=O)CC3)=C(O)C2)cc1OC (stereo not drawn),.,-0.9,.,-5.6
Cc1nnc2n(Cc3ccccc3)c(=O)c3c4c(sc3n12)CCCC4,.,-12.2,.,-6.2
Cc1nc2ccccc2c(=O)n1NC(=O)c1c(O)c2ccccc2n(C)c1=O,.,-3.3,.,2.2
CCn1c(SCC(=O)c2c(N)n(C)c(=O)n(C)c2=O)nc2sc(C)c(C)c2c1=O,.,1.9,.,3.4
COc1ccc(NC(=O)COC(=O)c2ccc(S(=O)(=O)N(C)c3ccccc3OC)cc2)c(OC)c1,.,0.1,.,-0.2
N#C/C(C(=O)N1CCOCC1)=c1\s/c(=C/c2ccncc2)c(=O)n1-c1ccccc1,.,-1.6,.,-3.5
CC1CN(S(=O)(=O)c2cccc(-c3cn4cccnc4n3)c2)CC(C)O1 (stereo not drawn),.,-0.8,.,-9.1
O=C1c2oc3ccc(F)cc3c(=O)c2C(c2ccncc2)N1CCN1CCOCC1 (stereo not drawn),.,-3.4,.,2.9
CCN1CCN(C2CCN(C(C)=O)CC2)CC1,.,1.6,.,17.6
CCN(CC)c1ccc2cc(C(=O)Nc3ccc(-n4cnnn4)c(OC)c3)c(=O)oc2c1,.,76.0*,.,78.2*
CC1CCN(S(=O)(=O)c2ccc(S(=O)(=O)N3CCN4CCCC4C3)cc2)CC1 (stereo not drawn),.,-0.9,.,-7.3
CCn1c(C)nc2cc(C(=O)n3cc(C(=O)c4cc(F)ccc4O)cn3)ccc21,.,-17.0,.,-3.4
O=C(Nc1nc(-c2cccs2)cs1)c1cc2ccccc2oc1=O,.,-2.5,.,13.8
Nn1c(SCC(=O)NC2CCCc3ccccc32)nnc1-c1ccc(Cl)cc1Cl (stereo not drawn),.,-22.4,.,-4.8
Cc1cc(C)c(S(=O)(=O)N2CCN(c3nc4c(c(=O)n(C)c(=O)n4C)n3C)CC2)c(C)c1,.,-7.1,.,6.5
Cc1nnc2n(-c3ccc(Cl)cc3)c(=O)c3c4c(sc3n12)CN(C)CC4,.,-2.0,.,4.1
CC(C)CCNC(=O)NC(=O)Cn1cc(C(F)(F)F)ccc1=O,.,-3.5,.,2.7
CCOC(=O)C1CCN(C(=O)C2CCN(S(=O)(=O)c3cccc4cccnc34)CC2)CC1,.,-8.2,.,6.4
CCN(CC)C(C)C#CCC(c1ccccc1)c1ccccc1 (stereo not drawn),.,-3.8,.,-8.6
c1ccc(CCNc2ccccc2)cc1,.,1.3,.,24.4
Cc1cc(C)nc(N2CCN(c3ncnc4c3oc3ccccc34)CC2)n1,.,-3.5,.,-5.3
CC1(C)Cc2c(sc3c4nnnn4c4nnnn4c23)CO1,.,-2.0,.,4.3
Cn1c(=O)c2c(ncn2CC(=O)Nc2cc(Cl)c(Cl)cc2Cl)n(C)c1=O,.,3.7,.,-13.3
C=CCn1c(=N)c(C(=O)OCC)cc2c(=O)n3cc(C)ccc3nc21,.,9.3,.,-2.0
Cc1ccc(-n2c(C)c3c(C)nnc(C)c3c2C)cc1,.,4.3,.,-0.4
CCOC(=O)c1c(C)[nH]c(C(=O)NCc2ccccc2OC)c1C,.,-13.2,.,-2.0
CCCc1nc(SCC(=O)N2CCc3ccccc32)c2c(=O)n(C)c(=O)n(C)c2n1,.,1.2,.,-3.9
CN1CCN(c2nc3c(c(=O)[nH]c(=O)n3C)n2CCSc2ncccn2)CC1,.,-0.8,.,-5.9
CSc1nc(C)c2c(n1)OC(CN1C(=O)c3ccccc3C1=O)C2 (stereo not drawn),.,3.3,.,4.6
COc1ccc(CS(=O)/C(Cl)=C(/Cl)C(=O)Nc2ccc(OC)nc2)cc1 (stereo not drawn),.,7.9,.,11.8
Cn1c(=O)[nH]c(=O)c2c1nc(N1CCCCCC1)n2CC(=O)c1ccccc1,.,10.1,.,6.5
Cc1nnc2n(Cc3ccccc3)c(=O)c3c4c(sc3n12)CN(Cc1ccccc1)CC4,.,4.1,.,-0.1
CCCOc1ccc(/C(O)=C2\C(=O)C(=O)N(CCCN(C)C)C23C(=O)N(C)c2ccccc23)cc1 (stereo not drawn),.,0.2,.,-1.5
Cc1c(/C(O)=C2\C(=O)C(=O)N(CCCN(C)C)C2c2ccncc2)cnn1-c1ccccc1 (stereo not drawn),.,1.3,.,-4.5
C#CCOCCOCCOCCNc1nc(N2CCN(C(=O)Cn3cc(CCCN=C(N)N)nn3)CC2)nc(N2CCN(C(=O)[C@H]([C@@H](C)CC)n3cc(CCCN=C(N)N)nn3)CC2)n1,.,25.4,.,2.5
CCCN1CCC(N2CCN(c3ccccc3OC)CC2)CC1,.,-11.7,.,11.0
O=C(CN1CCOCC1)N1CCN(c2ccc3ccccc3n2)CC1,.,1.1,.,11.0
O=C(Nc1nnc(-c2ccccc2Cl)o1)c1cc2cc([N+](=O)[O-])ccc2s1,.,-4.4,.,-0.5
Cc1ccc2nc3c(cc(C#N)c(=N)n3CC3CCCO3)c(=O)n2c1 (stereo not drawn),.,15.3,.,18.5
Cc1nc(SCC(=O)c2c(C)[nH]c3ccccc23)c2c(=O)n(C)c(=O)n(CC(C)C)c2n1,.,-6.5,.,-2.2
S=c1nc(-c2ccccc2)n(Cc2ccco2)c2c1CCCC2,.,19.2,.,15.7
# The list continues:
SMILES,Rce1 inh,eIF4H inh,CSC inhib,PABP FP inh
C[n+]1nc(Nc2ccccc2)sc1-c1ccc(C(=O)O)cc1,.,-7.3,.,-3.5
Cc1cc(C)nc(SCCn2c(N3CCC(C)CC3)nc3c2c(=O)n(C)c(=O)n3C)n1,.,-8.8,.,-3.8
O=C1CSC(c2ccc(F)cc2)N1c1nnc(C23CC4CC(CC(C4)C2)C3)s1 (stereo not drawn),.,-14.6,.,0.6
COc1ccc(NS(=O)(=O)c2ccc(NC(=O)c3cnn4c(C(F)F)cc(-c5ccc(C)cc5)nc34)cc2)cc1,.,11.2,.,1.8
Clc1cccc(-c2nn3c(-c4cccc(Cl)c4)nnc3s2)c1,.,-5.8,.,4.3
Cc1ccc(C(c2nnnn2C(C)(C)C)N2CCc3ccccc3C2)cc1 (stereo not drawn),.,-2.7,.,-6.6
Cc1ccc(N=Nc2c(O)c3ccccc3[nH]c2=O)c(S(=O)(=O)N(C)C)c1,.,-6.4,.,16.5
CCCSc1nnc2n(Cc3ccccc3)c(=O)c3c4c(sc3n12)CCC4,.,-4.4,.,-7.7
Cc1ccc(-c2nnc(CSc3nnc4c5c(C)c(C)sc5nc(C(C)C)n34)o2)cc1,.,-6.0,.,6.1
O=C(O)CN(CCO)CCN(CC(=O)O)CC(=O)O,.,12.1,.,-2.5
CC(=O)N1C=Cc2c(c(C)c3c([nH]c4ccccc43)c2C)C1,.,12.1,.,35.3
CCOc1cc(N2CCOCC2)c(OCC)cc1NC(=O)c1nc2nccc(C)n2n1,.,-2.6,.,-12.2
CC1(C)Cc2c(sc3ncn4nnnc4c23)CO1,.,5.2,.,-5.8
Cn1c2ccccc2c2nnc(SCN3C(=O)c4ccccc4C3=O)nc21,.,-4.4,.,1.7
O=C1N=C2N(CCN3CCCCC3)c3ccccc3N2/C1=C\c1ccc([N+](=O)[O-])o1,.,9.3,.,-1.0
CC(=O)N(Cc1cc2ccc(C)c(C)c2n2nnnc12)C1CCCC1,.,-14.1,.,-6.8
Cc1cc(C)nc(/N=C/c2c(O)n(C)c(=O)n(C)c2=O)n1,.,4.3,.,-0.5
N#CCCSc1ccccc1NC(=O)c1ccc(S(=O)(=O)N2CCCC2)cc1,.,-9.3,.,-3.6
Cc1ccc2cc(C)c3nnc(SCC(=O)Nc4nc5c(s4)CCCC5)n3c2c1,.,-0.9,.,4.6
CCOC(=O)CN(C(=O)CSc1nnc2c(n1)[nH]c1c(C)cc(C)cc12)c1ccccc1,.,1.8,.,4.8
O=C(Nc1nnc(C2CC2)s1)c1cc2c(s1)CCCCCC2,.,-12.7,.,-3.3
CC(C)(C)[Si](OCC[C@@H]1C[C@@]1(C)[C@@H](NP(=O)(c1ccccc1)c1ccccc1)c1ccccc1)(c1ccccc1)c1ccccc1,.,-7.8,.,-2.0

# Arranged by length of the SMILES (falling): part of the list above
SMILES,Rce1 inh,eIF4H inh,CSC inhib,PABP FP inh
CC(C)(C)[Si](OCC[C@@H]1C[C@@]1(C)[C@@H](NP(=O)(c1ccccc1)c1ccccc1)c1ccccc1)(c1ccccc1)c1ccccc1,.,-7.8,.,-2.0
COc1ccc(NC(=O)COC(=O)c2ccc(S(=O)(=O)N(C)c3ccccc3OC)cc2)c(OC)c1,.,0.1,.,-0.2
COc1ccccc1C1/C(=C(\O)c2ccc3c(c2)OCCO3)C(=O)C(=O)N1CCCN(C)C (stereo not drawn),.,-5.3,.,-9.0
CCOC(=O)C1CCN(C(=O)C2CCN(S(=O)(=O)c3cccc4cccnc34)CC2)CC1,.,-8.2,.,6.4
Cc1cc(C)nc(SCCn2c(N3CCC(C)CC3)nc3c2c(=O)n(C)c(=O)n3C)n1,.,-8.8,.,-3.8
Cc1ccc(-c2nnc(CSc3nnc4c5c(C)c(C)sc5nc(C(C)C)n34)o2)cc1,.,-6.0,.,6.1
COc1ccc(C2CC(=O)C(C=NCCN3CCN(C(C)=O)CC3)=C(O)C2)cc1OC (stereo not drawn),.,-0.9,.,-5.6
Cc1ccc(N=Nc2c(O)c3ccccc3[nH]c2=O)c(S(=O)(=O)N(C)C)c1,.,-6.4,.,16.5
O=c1c2c3nc4ccccc4nc3n(/N=C/c3cccs3)c2ncn1-c1ccccc1,.,6.3,.,-1.9
CCOc1cc(N2CCOCC2)c(OCC)cc1NC(=O)c1nc2nccc(C)n2n1,.,-2.6,.,-12.2
O=S(=O)(c1ccccc1)N1CCC(N2CCN(c3ccccc3)CC2)CC1,.,-1.6,.,-0.9
Cc1ccc2nc3c(cc(C#N)c(=N)n3CC3CCCO3)c(=O)n2c1 (stereo not drawn),.,15.3,.,18.5
CSc1nc(C)c2c(n1)OC(CN1C(=O)c3ccccc3C1=O)C2 (stereo not drawn),.,3.3,.,4.6
O=C(Nc1nc(-c2cccs2)cs1)c1cc2ccccc2oc1=O,.,-2.5,.,13.8
CC1(C)Cc2c(sc3c4nnnn4c4nnnn4c23)CO1,.,-2.0,.,4.3
CCCN1CCC(N2CCN(c3ccccc3OC)CC2)CC1,.,-11.7,.,11.0
